gsp ag: qHTS for Agonist of gsp, the Etiologic Mutation Responsible for Fibrous Dysplasia/McCune-Albright Syndrome: qHTS | hit rate 0.13% among 340,000 | gsp mutant cells, cAMP HTRF, 30 min; control for the full effect not named in the record | Potency, µM (series often up to 76.9 µM), for the others: at the top dose activation (cAMP increase), actives largely listed as activators; active = well fitted activation curve with a large enough effect; inconclusive = small, poorly fitted or top-dose-only effect, or another doubt; inactive = no such curve, though single readings can be large or run the other way; cell line not stated here;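 also: phosphodiesterase inhibitor Ro 20-1724 added with compounds to block cAMP breakdown; potency is read from the fitted curve at half-maximal effect; nearly all actives have a fitted effect of over 60% in size; about a fifth of the inactives were tested at one dose only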
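Cells in DMEM/10% FBS with G418 were pretreated with compounds in DMSO plus […] (300 uM stock) for 30 min at 37C. cAMP was measured by HTRF (cAMP-d2 plus anti-cAMP antibody-K) after 30 min at room temperature.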
Menin-MLL FL inh: qHTS Assay for Inhibitors Targeting the Menin-MLL Interaction in MLL Related Leukemias: Competition With Fluorescein Labeled MLL-derived Peptide; 290,000 tested, under 10 active; Fluorescence polarization, fluorescein-MLL peptide displacement from menin; FP activity change, % at 61.4 µM; inconclusive = falling polarisation curve, or a change in total fluorescence; inactive = total fluorescence flat and polarisation flat or rising; no compound was filed as active; the % refers to the polarisation; negative = inhibition;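 also: % of control where 0% means no effect; inhibitors lower the polarisation; unlabelled MLL peptide was the positive control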
ClpP mod: qHTS Assay for Activators of ClpP; AID 651965, 2013; Potency, µM (titrated, usually from 57.5 µM), for inactives: at the top dose activity change, negative = active; purified B. subtilis ClpP, FRET peptide cleavage, 20 min; hit rate 1.9% among 340,000; active = well fitted falling curve with a large enough effect; inconclusive = small, poorly fitted or top-dose-only effect; inactive = no such curve, though single readings can be large or run the other way; also: potency is read from the fitted curve at half-maximal effect; the source files actives as falling curves though it sought activators and does not explain the sign; nearly all actives have a fitted effect of over 65% in size; many hits overshoot -100%
Target sequence (P80244 whole entry, looked up): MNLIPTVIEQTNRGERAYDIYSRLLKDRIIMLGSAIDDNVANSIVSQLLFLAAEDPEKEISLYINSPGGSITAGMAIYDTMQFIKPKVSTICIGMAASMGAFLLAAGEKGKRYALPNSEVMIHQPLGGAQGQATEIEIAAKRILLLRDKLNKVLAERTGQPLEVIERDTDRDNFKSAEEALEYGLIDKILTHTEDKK
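Buffer: 100 mM Tris/HCl pH8, 100 mM KCl, 0.05% low protease BSA, 2.5% glycerol, 0.01% Tween-20. ClpP 10 microg/mL final; 20 min RT; delta FRET normalized to ADEP and DMSO controls.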
gsp antagonist: qHTS for Antagonists of gsp, the Etiologic Mutation Responsible for Fibrous Dysplasia/McCune-Albright Syndrome: qHTS; gsp-mutant cells, cAMP HTRF, 30 min; control for the full effect not named in the record; hit rate 0.4% among 340,000; Potency, µM (highest dose often 76.9 µM), for the others: at the top dose activity change, negative = inhibition, usual class: inhibitors; active = falling curve of any shape with a large fitted effect; inconclusive = falling curve, mostly with a smaller effect; inactive = flat or rising curve; cell line not stated here;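 also: intracellular cAMP measured with PDE inhibitor Ro 20-1724 present during compound exposure; potency is read from the fitted curve at half-maximal effect; % is scaled to controls: 0 for no effect and ±100 for the full control effect; nearly all actives have a fitted effect of over 65% in size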
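HTRF cAMP read-out (cAMP-d2 plus anti-cAMP antibody-K in lysis buffer, 30 min RT). Before lysis, cells are exposed to compounds with […] for 30 min at 37C in DPBS containing Ca/Mg, BSA and Tween 20.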
TRPV1 potentiator: HTS Assay for Compounds that Act as Potentiators of the Vanilloid Receptor 1; TRPV1-expressing cells, Fluo-8 calcium influx, capsaicin EC20 potentiation; host cell line not named in the record; control for the full effect not named in the record; potentiation, % at 8.33 µM; AID 540277, 2011; hit rate 0.02% among 320,000; active means potentiation above 80%; inconclusive means 30% to 80%; inactive means below 30%; also: 0% is about no effect
Target sequence (Q8NER1 whole entry, looked up): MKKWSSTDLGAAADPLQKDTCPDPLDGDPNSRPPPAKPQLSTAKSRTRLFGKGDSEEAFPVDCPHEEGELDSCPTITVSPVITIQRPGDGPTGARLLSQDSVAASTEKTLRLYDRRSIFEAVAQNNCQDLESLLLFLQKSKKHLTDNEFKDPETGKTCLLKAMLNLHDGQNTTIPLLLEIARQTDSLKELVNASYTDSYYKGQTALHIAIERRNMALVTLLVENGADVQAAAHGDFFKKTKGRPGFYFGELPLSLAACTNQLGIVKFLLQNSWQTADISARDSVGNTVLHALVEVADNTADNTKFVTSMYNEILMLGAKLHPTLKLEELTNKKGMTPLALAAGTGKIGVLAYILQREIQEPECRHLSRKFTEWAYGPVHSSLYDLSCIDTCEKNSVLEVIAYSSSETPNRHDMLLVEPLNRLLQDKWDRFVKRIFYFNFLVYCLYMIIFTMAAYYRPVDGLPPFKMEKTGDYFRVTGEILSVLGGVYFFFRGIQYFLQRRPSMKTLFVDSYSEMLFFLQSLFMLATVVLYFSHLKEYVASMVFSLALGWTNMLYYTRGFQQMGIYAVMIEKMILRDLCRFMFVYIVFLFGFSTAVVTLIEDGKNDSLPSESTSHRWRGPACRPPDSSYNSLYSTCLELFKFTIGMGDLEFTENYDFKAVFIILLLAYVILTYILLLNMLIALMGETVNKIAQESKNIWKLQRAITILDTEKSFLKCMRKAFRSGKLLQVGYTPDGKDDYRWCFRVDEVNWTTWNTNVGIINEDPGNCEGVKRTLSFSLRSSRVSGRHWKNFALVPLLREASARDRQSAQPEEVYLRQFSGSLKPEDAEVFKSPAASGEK
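Fluo-8 calcium influx in TRPV1-expressing cells, kinetic read (ex 480/em 520 nm). Compound added and read 3 min for agonist activity, followed by capsaicin at EC20 final and 2 min further read for enhancement.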
TRPML1 inh: qHTS for Inhibitors of the Human Mucolipin Transient Receptor Potential 1 (TRPML1). hit rate 0.02% among 390,000. Mucolipin-1 (Homo sapiens), Q9GZU1. AID 624415, 2012. activity change, negative = inhibition, % (no concentration beside the values). TRPML1-inducible cells, Ca2+ dye fluorescence, FDSS; active compounds read low; inhibition of EC80 agonist-evoked calcium signal; in the data active means activity change below about -50%; inconclusive means about -30% to -50%; inactive means above about -30%;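 also: stimulus is agonist 54-4 at its EC80 concentration; % is scaled to controls: 0 for no effect and ±100 for the full control effect; compound concentration not given in the record; the text of the record puts the active cut at -80%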
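TRPML1-DL cells, Tet-induced overnight (~16 h, 37 °C) at 1,500 cells/well, were loaded with Ca8 no-wash dye plus quencher for 45-90 min at room temperature. Compounds were pinned during FDSS kinetic reading; agonist 54-4 at EC80 (4 uM final) then added.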
Sfp inh: qHTS Assay for Inhibitors of Bacillus subtilis Sfp phosphopantetheinyl transferase (PPTase); 4'-phosphopantetheinyl transferase ffp (Bacillus subtilis), Q9F4F7; Biochemical Sfp PPTase activity, qHTS; Potency, µM, without a hit: max response, negative = inhibition, hits mostly inhibitors; hit rate 3.5% among 310,000; AID 1490, 2009; active = well fitted inhibition curve with a large enough effect; inconclusive = small, poorly fitted or top-dose-only effect, or another doubt; inactive = no such curve, though single readings can be large or run the other way;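 also: the enzyme is Sfp with the accession as filed and its product quenches rhodamine fluorescence; potency is read from the fitted curve at half-maximal effect; 0% = enzyme reaction without inhibitor and -100% = no enzyme wells; top concentration of the series not given in the record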
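Reaction rates are the 30-min fluorescence difference (ex 525, em 598 nm) in wells containing 15 nM Sfp, 5 uM rhodamine-CoA and 12.5 uM BHQ-2-YbbR at pH 7.6 with 10 mM MgCl2.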
Numbers without * were called inactive; ? = inconclusive; · = no result given; [ ] = remark or other dose.

structure,gsp ag,Menin-MLL FL inh,ClpP mod,gsp antagonist,TRPV1 potentiator,TRPML1 inh,Sfp inh
O=C(NC(=S)Nc1ccccn1)c1cc(-c2ccccc2)nc2ccccc12,-4.3%,-0.9,4.7%,-1.9%,-4.1,-3.4,15.8%
Cc1ccc(C(=O)c2oc3ccccc3c2NC(=O)c2cc(-c3ccccc3O)n[nH]2)cc1,-16.6%,6.1,7.2%,-4.5%,8.6,3.5,9.4%
CN1CCc2c(c3c(n2C)CCN(C)C3c2ccc(F)cc2)C1c1ccc(F)cc1 (centres undefined),-15.3%,-3.5,-10.0%,4.5%,5.6,-5.1,10.2%
CCc1ccc(N2CCN(C(=O)c3ccc(OC)c(OC)c3)CC2)cc1,-9.1%,-5.2,1.2%,-7.3%,-7.6,-12.7,2.8%
Cc1ccc(S(C)(=O)=O)cc1S(=O)(=O)Nc1ccccc1,0.0%,-6.6,1.4%,-16.7%,19.2,4.4,24.2%
Cc1ccc(-c2nn(C)c(=O)c3ccccc23)cc1S(=O)(=O)NCCN(C)C,0.9%,-2.3,·,-8.3%,-0.8,32.9,10.0%
CCCCCC(=O)Nc1cccc(S(=O)(=O)NC2=NCCC2)c1,-21.2%,·,35.5µM*,4.4%,-1.9,4.1,·
CCc1ccccc1NC(=O)CSc1nnc(-c2ccco2)n1N,-16.6%,1.8,-1.3%,-8.5%,4.7,25.0,16.0%
O=C(OCCc1ccccn1)c1cccc([N+](=O)[O-])c1,-13.8%,·,·,11.0%,·,4.3,·
Nc1nc(NC(=O)CCC(=O)O)nn1-c1ccccc1,-44.7%[15.4 µM],0.3,·,10.6%,-10.7,-4.5,7.4%
CN(C(=O)c1ccncc1)c1nnc(-c2ccccn2)s1,-22.8%,1.4,752.7%,7.7%,-4.8,27.7,7.8%
CCc1nc2ccccc2c(C(=O)Nc2cccc(C)c2)c1C,9.0%[15.4 µM],0.2,2.1%,0.7%,?,0.3,13.1%
CC(=O)Nc1ccc(S(=O)(=O)NCc2cc(=O)n(C)c(=O)n2C)cc1,?,1.1,-0.4%,-27.9%,4.7,-7.0,19.3%
O=C(CN1C(=O)c2ccccc2S1(=O)=O)Nc1ccc(S(=O)(=O)N2CCCC2)cc1,-8.1%,-0.7,0.0%,-4.7%,0.5,-13.8,3.5%
CC(C)C(=O)NC(c1ccco1)c1ccc2cccnc2c1O (centres undefined),0.0%,2.3,-2.9%,1.8%,-3.7,23.6,8.5%
COc1ccc(N=C(NN)c2ccc3ccccc3n2)cc1,-9.5%,6.3,?,1.2%,11.3,30.9,-79.4%
CCO[C@H]1OC(C(=O)N2CCN(Cc3ccccc3)CC2)=C[C@@H](c2cn(C(C)=O)c3ccccc23)[C@@H]1CCCO,·,-5.2,0.4%,-13.4%,-13.8,-20.5,5.3%
COC(=O)/C=C1/S/C(=N/NC(=O)c2ccccc2OC)NC1=O,-134.7%[inhibitor],·,1.0%,-31.3%,10.4,21.3,-4.7%
CCOc1ccc(OCCC(=O)OCC(=O)Nc2cc(C)nn2-c2ccccc2)cc1,-10.9%,·,-1.6%,1.3%,18.1,-8.6,·
CC(C)N(C(=O)CN1CCN(C(=O)C2COc3ccccc3O2)CC1)C(C)C (centres undefined),?,·,-0.8%,5.2%,-6.3,13.9,·
COc1cccc(CN2CCNC(=O)C2CC(=O)O)c1OC (centres undefined),-34.1%[inhibitor],1.1,-5.1%,0.7%,-17.1,-0.9,7.0%
CCOc1[nH]n(-c2ccc(Cl)cc2)c(=O)c1C=Nc1ccc(Cl)cc1,18.6%,-6.3,-1.4%,-6.3%,2.5,7.1,7.3%
COc1ccc(C2C(C(=O)Nc3cccc(C)n3)CCC(=O)N2c2ccc(OC)cc2)cc1 (centres undefined),7.2%,-0.2,-0.3%,0.4%,-16.3,10.4,3.6%
CCc1c(O)nc(SCC(=O)Nc2ccccc2)n(-c2ccccc2)c1=O,-23.0%,5.0,1.1%,-11.2%,-21.7,11.7,20.1%
CN1CCN(Cc2ccc(Sc3ccc(Cl)cc3)c([N+](=O)[O-])c2)CC1,9.3%[15.4 µM],1.3,-23.2%,-6.3%,10.5,8.0,?
Cc1onc(-c2ccccc2)c1C(=O)OCC(=O)Nc1ccccc1,20.0%,·,1.1%,-12.4%,-9.1,-1.0,·
CC(=O)c1cccc(OCC(=O)Nc2ccccc2N2CCOCC2)c1,18.5%,·,2.0%,0.9%,-20.3,-4.0,·
CC1CCCCN1Cc1c(O)ccc2c(=O)c(-c3nc4ccccc4s3)coc12 (centres undefined),25.3%,11.4,-0.9%,-7.1%,·,·,12.2%
CSCCC(NC(=O)c1ccco1)C(=O)NCc1ccc2c(c1)OCO2 (centres undefined),-6.2%,·,0.8%,16.1%,5.8,-7.2,·
Cc1ccc(C)c(-c2csc(Nc3ncccn3)n2)c1,-1.0%,-11.9,-1.0%,3.0%,18.2,11.3,8.4%
O=C(O)Cn1nnnc1SCC(=O)Nc1ccccc1F,3.4%[15.4 µM],1.3,-56.1%,7.8%,-4.3,-7.7,14.4%
CC(=O)c1cccc(NC(=O)C(C)OC(=O)c2cccc(-n3cnnn3)c2)c1 (centres undefined),-9.9%,·,-0.6%,-6.1%,2.6,3.2,·
COc1ccc([C@@H]2CC=C(C(=O)O)[C@H](c3ccc(F)cc3)N2S(=O)(=O)c2ccc(C)cc2)cc1OC,-50.1%[inhibitor],·,0.0%,-18.0%,-13.8,-9.5,·
CCN(CCn1cccn1)Cc1c(C(=O)N2CCCCCCC2)nc2ccc(Cl)cn12,20.8%,-21.0,-2.1%,-0.1%,-8.6,-8.0,-16.4%
CCC1(c2ccccc2)NC(=O)N(CC(=O)Nc2ccccc2N2CCCCC2)C1=O (centres undefined),-41.2%[inhibitor],0.5,-1.6%,-19.7%,-15.9,-4.3,4.6%
CCNC1CCS(=O)(=O)C1 (centres undefined),0.3%[15.4 µM],-5.4,·,3.7%,-10.0,23.9,8.4%
O=C(CSc1nnc(SCc2cccc3ccccc23)s1)Nc1ccc(C(=O)O)cc1,3.3%[15.4 µM],0.8,·,-12.8%,3.3,-1.3,19.2%
COc1ccc(Br)cc1C(=O)Nc1ccc(C(=O)O)cc1,27.8%,2.6,·,-23.9%,-5.5,-7.2,-1.8%
CCOc1ncccc1C(=O)OCC(=O)N1CCc2ccccc21,11.3%,-3.9,·,5.5%,5.4,29.9,1.5%
Nc1cccnc1S(=O)(=O)c1ccccc1,-56.7%[inhibitor],5.3,3.3%,11.3%,24.2,-5.8,5.6%
Cc1c(C(=N)C(C#N)C#N)c(=N)oc2c1ccc1ccccc12,-6.9%,12.2,-7.5%,-11.0%,?,-6.9,-1.3%
CCn1cc(S(=O)(=O)NC(C)c2cc(OC)ccc2OC)cn1 (centres undefined),1.6%,·,1.0%,2.1%,-2.9,38.0,3.0%
O=C(O)c1ccc(S(=O)(=O)N2CCC(Cc3ccccc3)CC2)cc1,?,5.0,0.3%,-5.5%,-11.8,4.9,12.3%
CN(C)CCOC1c2ccccc2CCc2ccc3ccccc3c21 (centres undefined),1.9%[15.4 µM],·,44.7%,12.2%,·,-6.0,·
C/C(CC(=O)Nc1ccc(F)cc1)=N\NC(=O)COc1ccccc1,-8.6%,0.5,-1.1%,0.2%,-9.0,-14.2,15.9%
COc1ccc(-n2cc(CNCCN3CCOC3=O)c(-c3ccccc3Cl)n2)cc1,10.7%,0.5,-0.3%,2.4%,-12.4,8.7,13.4%
CC(C)(CNC(=O)c1ccc(Cl)c(S(=O)(=O)N2CCc3ccccc3C2)c1)N1CCOCC1,-6.4%[15.4 µM],-4.7,·,-24.5%,-1.1,12.8,?
COCCN(C(=O)Cc1ccc(OC)c(OC)c1)c1nc(-c2cc(OC)ccc2OC)cs1,-31.2%[inhibitor],6.5,-1.9%,-20.9%,?,10.0,1.5%
O=C(Cc1n[nH]c(=O)c2ccccc12)OCC(=O)c1ccc2c(c1)OCCO2,-9.8%,5.8,-6.1%,-33.2%,-2.5,12.4,0.0%
Clc1ccccc1NN=Cc1ccccn1,?,·,-4.0%,·,·,-2.3,·

(next part)
structure,gsp ag,Menin-MLL FL inh,ClpP mod,gsp antagonist,TRPV1 potentiator,TRPML1 inh,Sfp inh
CCN(CC)c1ccc(NC(=O)Nc2cccc3ccccc23)cc1,2.9%[15.4 µM],-1.1,0.5%,-16.0%,1.1,8.0,-21.2%
Cc1cc(C(F)F)nn1CC(=O)NC1CCCC1,0.0%[15.4 µM],-7.7,-0.3%,9.2%,4.1,-8.5,13.9%
CN(CC(=O)Nc1cccc(F)c1)C(=O)CCCc1nc2ccccc2c(=O)[nH]1,1.4%,·,1.2%,-4.1%,21.8,-3.4,·
CN(c1ccccc1)S(=O)(=O)c1cccc(NC(=O)CSc2n[nH]c(N)n2)c1,3.8%[15.4 µM],7.6,·,-12.1%,1.4,0.0,-8.1%
Clc1ccc(SCCCN2CCCCC2)cc1,26.5%,-0.4,-0.4%,15.3%,-5.2,-6.4,?
COc1cc(Cl)ccc1OCc1cc(C(=O)N2C[C@@H]3CCC[C@H]2C3)no1,1.4%[15.4 µM],·,0.2%,1.7%,-11.8,-6.5,-6.3%
COc1cccc(C=O)c1OCCN1C(=O)c2ccccc2C1=O,9.9%,1.3,-2.5%,-9.8%,-4.5,0.3,19.3%
Cc1ccc(-n2cccn2)c(CN2CCCC(CNC(=O)c3ccc(F)cc3)C2)c1 (centres undefined),-45.0%[inhibitor],2.3,·,11.8%,5.5,6.4,28.8%
N#CCC(=O)Nc1ccc(C(=O)Nc2cccc(S(=O)(=O)N3CCCC3)c2)cc1,-31.2%[inhibitor],·,0.5%,·,·,24.1,·

Screens as filed in PubChem BioAssay.
